Screens (PubChem)
Lassa entry inh: qHTS for Inhibitors of binding or entry into cells for Lassa Virus; Lassa virus pseudotype entry inhibition, cell reporter; control for the full effect not named in the record; AID 540256, 2011; Potency, µM (top dose mostly 37.9 µM), without a hit: at the top dose activity change, negative = inhibition, most hits filed as inhibitors; hit rate 1.2% among 300,000; active means well fitted inhibition curve with a large enough effect; inconclusive means small, poorly fitted or top-dose-only effect, or effect the other way; inactive means flat fitted curve, though single readings scatter; tested in HEK293 cells; note: % is set by controls: 0 for no effect and ±100 for the full control effect; nearly all actives have a fitted effect of over 50% in size; luciferase read-out
SARS PLpro yeast: qHTS of Yeast-based Assay for SARS-CoV PLP. S. cerevisiae expressing SARS-CoV PLpro, growth rescue; control for the full effect not named in the record. Potency, µM (series often up to 32.9 µM), inactives show top-dose activity, positive = growth rescue. hit rate 0.19% among 330,000; active means well fitted rising curve with a large enough effect; inconclusive means small, poorly fitted or top-dose-only effect; inactive means no such curve, though single readings can be large or run the other way; note: 0% is about no effect; nearly all actives have a fitted effect of over 55% in size; growth read by luminescence after 48 h
RE007 growth inh: qHTS Assay for Inhibitors of the HIV-1 protein Vpr; Potency, µM (series often up to 92.2 µM), for inactives: top-dose activity change, negative = less growth; S. pombe RE007 Vpr strain, BacTiter-Glo ATP luminescence, 24 h; control for the full effect not named in the record; AID 651644, 2012; hit rate 0.21% among 360,000; active = well fitted falling curve with a large enough effect; inconclusive = small, poorly fitted or top-dose-only effect; inactive = no such curve, though single readings can be large or run the other way;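 note: % is set by controls: 0 for no effect and ±100 for the full control effect; nearly all actives have a fitted effect of over 50% in size; the assay follows cell death caused by Vpr and the record does not say whether a fall means rescue or toxicity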
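Fission yeast RE007 carrying one integrated HIV-1 vpr copy, seeded at OD 0.01 in PMG+AL medium with 23 nL pinned compound. Grown 24 h at 30 degrees; viability read by BacTiter-Glo luminescence after 5 min.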
NS1 inh: qHTS Assay for Inhibitors of Influenza NS1 Protein Function; hit rate 0.4% among 270,000; AID 2326, 2010; S. cerevisiae slowed by influenza A NS1, growth recovery by OD600; Potency, µM (highest dose often 46.1 µM), without a hit: at the highest dose activity, positive = more growth; active means well fitted rising curve with a large enough effect; inconclusive means small, poorly fitted or top-dose-only effect; inactive means no such curve, though single readings can be large or run the other way; note: nearly all actives have a fitted effect of over 50% in size
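A cell-based growth assay was used: compounds that relieve NS1-induced slow growth of budding yeast raise OD600. Assay medium was yeast nitrogen base with ammonium sulphate and -URA supplement, pH 6.0, with 2% galactose.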
Cruzain Triton: qHTS Assay for Promiscuous and Specific Inhibitors of Cruzain (with detergent); Potency, µM, without a hit: max response, negative = inhibition, actives largely listed as inhibitors; Cruzipain (Trypanosoma cruzi), P25779; hit rate 0.43% among 200,000; purified cruzain, Z-FR-AMC fluorescence, 0.01% Triton; AID 1478, 2009;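 note: plate controls were neutral wells for no effect and buffer without enzyme for full effect; nearly all actives have a fitted effect of over 40% in size; top concentration of the series not given in the record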
Target sequence (P25779 123-467 limits assumed): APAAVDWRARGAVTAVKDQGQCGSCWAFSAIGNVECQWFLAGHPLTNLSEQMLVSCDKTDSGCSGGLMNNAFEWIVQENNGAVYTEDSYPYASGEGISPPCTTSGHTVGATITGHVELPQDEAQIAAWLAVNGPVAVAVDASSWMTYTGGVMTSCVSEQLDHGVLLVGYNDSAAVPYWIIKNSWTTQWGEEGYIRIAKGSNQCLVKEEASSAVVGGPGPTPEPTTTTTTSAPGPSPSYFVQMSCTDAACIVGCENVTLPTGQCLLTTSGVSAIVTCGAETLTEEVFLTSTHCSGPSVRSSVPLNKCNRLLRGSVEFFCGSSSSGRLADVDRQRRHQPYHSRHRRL
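Detergent-containing arm of a paired screen for aggregation-based inhibition: 0.01% Triton X-100 present. Cruzain at 1.5 nM cleaved 2 uM Z-FR-AMC at pH 5.5 with 5 mM DTT; AMC fluorescence gain over 60 s measured activity.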
StopGo reporter: High Throughput Screening for Foot and Mouth Disease Virus Antivirals. human cells with a luciferase reporter of 2A StopGo recoding; control for the full effect not named in the record. Potency, µM (doses to about 57.9 µM), inactives show at the highest dose signal change, negative = less light. hit rate 1.2% among 410,000; active = well fitted falling curve with a large enough effect; inconclusive = small, poorly fitted or top-dose-only effect; inactive = no such curve, though single readings can be large or run the other way; tested in HEK293T cells; note: % is set by controls: 0 for no effect and ±100 for the full control effect; nearly all actives have a fitted effect of over 45% in size; luciferase light after 4 h
Cruzain noTriton: qHTS Assay for Promiscuous and Specific Inhibitors of Cruzain (without detergent). Cruzipain (Trypanosoma cruzi), P25779. purified cruzain, Z-FR-AMC fluorescence, no detergent. Potency, µM, inactives show max response, negative = inhibition, usual class: inhibitors. hit rate 2.3% among 200,000. AID 1476, 2009;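 note: plate controls were enzyme without inhibitor for no effect and buffer without enzyme for full effect; nearly all actives have a fitted effect of over 40% in size; top concentration of the series not given in the record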
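Purified cruzain at 1.5 nM, pre-incubated 15 min with compound at room temperature in 100 mM sodium acetate pH 5.5, 5 mM DTT, 0.00005% Triton X-100. Reaction started with 2 uM Z-FR-AMC; AMC fluorescence increase over 60 s gives rate.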
Marburg entry inh: qHTS for inhibitors of binding or entry into cells for Marburg Virus; hit rate 1.8% among 300,000; Marburg virus pseudotyped entry inhibition, cell reporter; control for the full effect not named in the record; about a third of the inactives were read at about 46 µM; Potency, µM (series often up to 37.8 µM), without a hit: at the highest dose activity change, negative = inhibition, actives largely listed as inhibitors; active = well fitted inhibition curve with a large enough effect; inconclusive = small, poorly fitted or top-dose-only effect, or effect the other way; inactive = flat fitted curve, though single readings scatter; tested in HEK293 cells; about a fifth of its hits are not listed in these tables; note: % is set by controls: 0 for no effect and ±100 for the full control effect; luciferase read-out
* = called active by the depositor; u = inconclusive; x = no result given; & = joins results of further samples; [ ] = dose if it differs, or a comment. Unless noted, calls come from the whole dose curve; as a rule, active = well fitted curve in the direction sought with a large enough effect; inconclusive = small, poorly fitted or top-dose-only effect, or another doubt; inactive = no such curve, though single readings can be large; an effect the other way counts as inactive or inconclusive. Potency is the fitted concentration of half-maximal effect.

SMILES	Lassa entry inh	SARS PLpro yeast	RE007 growth inh	NS1 inh	Cruzain Triton	StopGo reporter	Cruzain noTriton	Marburg entry inh
Cc1ccc2cc(CN(Cc3ccco3)C(=O)NCc3ccccc3)c(=O)[nH]c2c1C	u	8%	-2%	-11%	-1.5%	-12%	-4%	u
Cc1nnc(SCCN2C(=O)c3ccccc3C2=O)[nH]c1=O	-5%	3%	16%	5%	1.5%	8%	-9%	2%&2%[46.1 µM]
CN(C)CCCNC(=O)c1cc(C(=O)c2c(Cl)cccc2Cl)c[nH]1	-13%[46.1 µM]	-1%	4%	-1%	x	-11%	x	u
CC(NC(=O)c1ccc2c(c1)N(Cc1ccc(Cl)cc1)C(=O)c1ccccc1S2(=O)=O)c1ccccc1 (stereo unspecified)	u	x	x	x	0.0%	9%	u	u
COc1ccc(CNC(=O)C(=O)NCC(c2cccnc2)N2CCN(c3ccccc3F)CC2)cc1 (stereo unspecified)	9%[46.1 µM]	x	x	x	-1.5%	-7%	1%	x
COc1ccc(CCNC(=O)CN(C)S(=O)(=O)c2ccc(Br)s2)cc1OC	1%&6%	10%	2%	-21%	-1.7%	-22%	13%	-7%&9%
Cc1ccccc1OCc1nnc(SCc2cc(=O)c3ccccc3[nH]2)n1C	-19%[46.1 µM]	x	x	x	-0.7%	u	-3%	x
O=C(COC(=O)c1cccnc1Cl)NC1CCCCCC1	-2%[46.1 µM]	3.2µM*	31%	x	x	21%	x	-10%[46.1 µM]
CC(C)(C)C(=O)Nc1ccc(C(=O)NCc2cccnc2)cc1	14%	x	-10%	9%	1.5%	25%	-6%	-2%
O=C(Cc1ccc(Cl)cc1)NNC(=O)Nc1cccc2ccccc12	16%	2%	2%	-15%	14%	-20%	u	u
CCN(CC)C1=N/C(=C\c2ccc(OC)cc2)C(=O)N1c1ccccc1	0.89µM*	-9%	9%	-20%	-9.6%	u	-12%	u
Fc1ccc(-n2ncc3c(N4CCCCCC4)ncnc32)cc1	-1%[46.1 µM]	x	x	x	1.1%	u	-9%	x
C=CCNc1cc(C)oc(=O)c1C(=O)CCC	-3%	1%	11%	-12%	0.2%	-23%	3%	u
CN=C(Nc1cc(C)nn1-c1ccccc1)c1ccccc1	2%	1%	-13%	0%	1.3%	x	-5%	10%
O=C(Nc1ccc(NC(=O)C2CC2)nc1)c1cccs1	9%	-5%	0%	-49%	7.2%	35%[activator]	0%	21%
Cn1c(SCc2ccc(F)cc2Cl)nc2ccccc2c1=O	u	1%	-11%	x	x	u	x	u
CCOC(=O)C1CCCN(c2c(Nc3ccc(OCC)cc3)c(=O)c2=O)C1 (stereo unspecified)	x	4%	5%	4%	-2.3%	-4%	0%	x
CCC(C(=O)N1CCN(c2ccc(OC)cc2)CC1)n1nc(C)n2c(cc3occc32)c1=O (stereo unspecified)	-18%[46.1 µM]	x	x	x	-3.2%	u	7%	-22%[46.1 µM]
Cc1cc(C)cc(OCC(=O)N/N=C\c2cn(C)nc2C)c1	-3%	-11%	4%	8%	0.7%	-9%	3%	3%
COc1cc(NC(=O)CCc2c(C)nc3nc(C)nn3c2C)cc(OC)c1	-4%	12%	10%	1%	5.2%	-7%	12%	8%
O=C(CSc1nc(-c2ccccc2Cl)ns1)NCc1ccco1	-5%	-4%	-9%	-1%	3.2%	3%	-10%	29%
CCn1c(CNc2ccc(F)cc2)nnc1SCC#N	-14%	0%	2%	4%	x	-10%	x	17%[46.1 µM]
COc1ccc(Cn2c(C(=O)O)c(CNCc3ccc(C)o3)c3ccc(C)cc32)cc1	u	x	x	x	-4.0%	-1%	u	x
COc1ccc(-c2cc(C(=O)N3CCN(c4ccccc4)CC3)c3ccccc3n2)cc1OC	4.5µM*	-1%	9%	25%	-6.4%	-8%	u	u
CN(CCCNC(=O)c1cc2c(=O)n(C)c3ccccc3c2s1)Cc1ccccc1	12%[46.1 µM]	x	x	x	-2.0%	-20%	-10%	u
Cc1ccc(N2CCN(S(=O)(=O)c3nnc(NC(=O)c4ccco4)s3)CC2)cc1	x	-10%	0%	-34%	x	-20%	x	x
COc1ccc(Cn2c(SCC#N)nc3ccc(N4CCOCC4)cc3c2=O)cc1	-16%	1%	9%	x	x	58%[activator]	x	-14%[46.1 µM]
COc1ccc(NC(=O)c2cc(C)no2)cc1OC	u	0%	-22%	-1%	x	-7%	x	-7%[46.1 µM]
O=C(COc1ccc2c3c(c(=O)oc2c1)CCCC3)NC(Cc1ccc(Cl)cc1)C(=O)O (stereo unspecified)	x	-9%	9%	u	x	-7%	x	x
CCOC(=O)Cc1[nH]nc2c1C(c1cc(OC)ccc1OC)C(C#N)=C(N)O2 (stereo unspecified)	14%	-2%	9%	5%	0.7%	-3%	-2%	5%
COC(=O)C(C(=O)OC)C(C[N+](=O)[O-])c1ccc(O)c(OC)c1 (stereo unspecified)	-3%	9%	3%	-3%	-2.7%	-10%	-7%	-21%
COc1ccc(NC(=O)C2CCN(S(=O)(=O)c3cccc4nonc34)CC2)c(OC)c1	3%	1%	35%	3%	x	3%	x	-1%[46.1 µM]
COCCOC(=O)C1=C(C)NC(=O)NC1c1cccc(F)c1 (stereo unspecified)	u	1%	20%	8%	x	-16%	x	18%[46.1 µM]
Cc1nonc1C(=O)N/N=C/c1ccc(O)cc1	5%	4%	25µM*	-12%	-3.4%	34%[activator]	5%	u
O=C(CN1CCC(NC(=O)Nc2ccccc2)CC1)Nc1ccccc1F	-7%[46.1 µM]	5%	-8%	-5%	x	5%	x	-14%[46.1 µM]
O=C1CCCC(=NNC(=O)c2cc3ccccc3cc2O)C1	u	28%	0%	x	x	-15%	x	u
Cn1nnnc1Sc1c(Cl)cccc1[N+](=O)[O-]	3%	13%	10%	16%	-2.7%	1%	7%	9%
O=C(COC(=O)c1c[nH]c(=O)[nH]c1=O)Nc1ccccc1F	-6%	-1%	-3%	x	x	-1%	x	-10%[46.1 µM]
COc1ccccc1Nc1nc2ccccc2n1C	x	8%	-29%	-10%	-0.2%	42%[activator]	-3%	x
N#C/C(=C\c1c(N2CCC(C(N)=O)CC2)nc2ccccn2c1=O)C(=O)NC1CCCCC1	x	12%	-4%	4%	x	-11%	x	x

Molecules listed so far with a COOH group (2):
SMILES	Lassa entry inh	SARS PLpro yeast	RE007 growth inh	NS1 inh	Cruzain Triton	StopGo reporter	Cruzain noTriton	Marburg entry inh
COc1ccc(Cn2c(C(=O)O)c(CNCc3ccc(C)o3)c3ccc(C)cc32)cc1	u	x	x	x	-4.0%	-1%	u	x
O=C(COc1ccc2c3c(c(=O)oc2c1)CCCC3)NC(Cc1ccc(Cl)cc1)C(=O)O (stereo unspecified)	x	-9%	9%	u	x	-7%	x	x

(next part)
SMILES	Lassa entry inh	SARS PLpro yeast	RE007 growth inh	NS1 inh	Cruzain Triton	StopGo reporter	Cruzain noTriton	Marburg entry inh
Cc1ccc(/C=N/N(Cc2ccccc2)c2ccccc2)o1	x	-2%	-2%	12%	x	-10%	x	x
O=C(NCCCN1CCN(c2ccccc2)CC1)c1cc2c(s1)-c1ccccc1OC2	-24%[46.1 µM]	x	x	x	-0.6%	u	-7%	u
COc1c(S(=O)(=O)NCCCn2ccnc2)ccc(Cl)c1Cl	x	-1%	-8%	-6%	x	22%	x	x
O=C(NCCN1CCN(c2ccccc2F)CC1)C1CCCN(S(=O)(=O)c2cnc[nH]2)C1 (stereo unspecified)	x	0%	6%	0%	1.9%	-19%	-29%	8%
O=C(NCCN1CCOCC1)c1cnn2c1NC(c1cccs1)CC2C(F)(F)F (stereo unspecified)	-5%	-5%	12%	x	x	-5%	x	5%[46.1 µM]
Cc1ccc(N2CCN(C(=S)c3ccc(N(C)C)cc3)CC2)cc1	-7%	-13%	-9%	-49%	-0.9%	34%[activator]	20µM*	16%
COc1ccc(C(=O)NCCNc2ccccc2[N+](=O)[O-])cc1	x	1%	0%	-9%	x	0%	x	x
Cc1cc(NC(=O)CCSc2ccccc2)ccc1Br	10%	-50%	u	-7%	-6.6%	-3%	-6%	u
COc1ccc(OC)c(-n2c(=S)[nH]c3cc(C(=O)N(C)Cc4ccccc4)ccc3c2=O)c1	-29%[46.1 µM]	1%	5%	x	x	11%	x	-21%[46.1 µM]
Cc1c(Cl)cccc1Nc1nn2c(=O)c3ccc(C(=O)NCCC4=CCCCC4)cc3nc2s1	-10%[46.1 µM]	x	x	x	-2.3%	u	-14%	x
CCOC(=O)C1=C(C)NC(C)=C(C(=O)OCC)C1c1cccc(C)n1	0%[46.1 µM]	2%	-11%	-1%	x	-4%	x	u
O=C(COc1ccc(Cl)cc1Cl)NN1C(=O)C2C3C=CC([C@@H]2C1=O)C31CC1 (stereo partly specified)	u	-1%	-17%	-1%	x	-13%	x	-4%[46.1 µM]
Cc1nn(C)c(C)c1NS(=O)(=O)c1cccc(Br)c1	5%[46.1 µM]	1%	-15%	x	x	-26%	x	-15%
COc1cccc(N=Cc2c(O)n(Cc3ccco3)c(=O)[nH]c2=O)c1	x	-2%	6%	2%	x	-9%	x	x
CCN(CC)C(=O)CSc1nc2ccccc2n1CC(=O)N1CCN(c2ccccc2OC)CC1	8%	3%	7%	-3%	-2.6%	-13%	5%	-17%
Cc1cccc(CCNC(=O)c2oc3c(C)c(C)ccc3c2C)n1	x	1%	-25%	-14%	x	4%	x	x
CCN1CCN(c2oc(-c3ccc(OC)cc3)nc2C#N)CC1	12%	x	2%	-10%	x	-4%	x	16%
